N370S GC: qHTS Assay for Inhibitors and Activators of N370S glucocerebrosidase as a Potential Chaperone Treatment of Gaucher Disease; N370S GC spleen homogenate, 4MU-glucoside fluorescence; actives 0.092% (n = 330,000); Potency, µM (series often up to 59.4 µM), for the others: top-dose activity change, negative = inhibition, hits mostly inhibitors;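 also: 0% = full enzyme activity and -100% = no enzyme basal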
TDP1 block: qHTS Assay for Inhibitors of Tyrosyl-DNA Phosphodiesterase (TDP1). Tyrosyl-DNA phosphodiesterase 1 (Homo sapiens), Q9NUW8. recombinant TDP1, AlphaScreen DNA substrate cleavage. Potency, µM (top dose mostly 130 µM), without a hit: at the top dose activity change, negative = inhibition, actives largely listed as inhibitors. actives 0.28% (n = 350,000); also: nearly all actives have a fitted effect of over 40% in size
Target sequence (Q9NUW8 whole entry, looked up): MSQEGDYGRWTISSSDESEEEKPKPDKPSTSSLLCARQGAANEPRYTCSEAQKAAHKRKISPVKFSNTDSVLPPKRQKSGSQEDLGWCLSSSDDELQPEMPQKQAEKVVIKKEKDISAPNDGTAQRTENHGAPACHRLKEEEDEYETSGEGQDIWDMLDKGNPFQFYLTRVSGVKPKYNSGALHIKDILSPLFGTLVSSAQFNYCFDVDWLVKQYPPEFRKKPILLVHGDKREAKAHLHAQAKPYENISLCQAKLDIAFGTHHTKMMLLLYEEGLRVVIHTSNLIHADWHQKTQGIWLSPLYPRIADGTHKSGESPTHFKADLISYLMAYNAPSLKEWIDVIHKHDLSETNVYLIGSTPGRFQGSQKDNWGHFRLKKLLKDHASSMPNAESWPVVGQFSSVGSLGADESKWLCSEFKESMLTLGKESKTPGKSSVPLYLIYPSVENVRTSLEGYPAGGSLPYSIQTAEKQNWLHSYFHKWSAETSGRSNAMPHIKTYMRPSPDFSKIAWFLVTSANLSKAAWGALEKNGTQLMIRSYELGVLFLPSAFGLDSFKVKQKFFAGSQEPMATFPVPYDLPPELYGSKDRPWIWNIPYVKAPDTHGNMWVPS
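AlphaScreen read-out: signal falls as enzyme removes the 3' tyrosine-FITC from a 5'-biotinylated DNA oligo (15 nM, 5 min, RT). Enzyme was E. coli-made recombinant Tdp1 at 1 nM, exposed to compound for 15 min beforehand; beads 10 ug/ml, 10 min.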
Active calls of the source: *; · = no result given; & = joins results of further samples; [ ] = another dose, or the depositor's remark. Calls follow the shape of the dose curve; as a rule, active = well fitted curve in the direction sought with a large enough effect; inconclusive = small, poorly fitted or top-dose-only effect, or another doubt; inactive = no such curve, though single readings can be large; an effect the other way counts as inactive or inconclusive. Unless noted, % is scaled to controls: 0 for no effect and ±100 for the full control effect; potency is read from the fitted curve at half-maximal effect. A portion of the library, and most or all hits are left out here.

CNCC(O)c1cccc(OC(=O)c2ccccc2C)c1 (stereo not drawn)
  N370S GC = -15.8%; TDP1 block = 2.8%
c1cncc(CNCCc2c[nH]c3ccccc23)c1
  N370S GC = -18.1%; TDP1 block = 3.7%
O=[N+]([O-])[N-][n+]1cnn(Cc2ccccc2)c1
  N370S GC = -1.4%; TDP1 block = 2.4%
COc1ccccc1N1CCN(Cc2cccc(Br)c2)CC1
  N370S GC = -2.5%; TDP1 block = ·
Cc1cc(OCc2nn[nH]n2)c2c3c(c(=O)oc2c1)CCC3
  N370S GC = 6.7%; TDP1 block = 6.2%
O=C(c1cccs1)N1C2CCC1CC(O)(c1cccnc1)C2 (stereo not drawn)
  N370S GC = 2.2%; TDP1 block = 1.0%
COc1ccccc1-n1c(/C=C/c2ccc(O)cc2)nc2ccccc2c1=O
  N370S GC = -6.8%; TDP1 block = ·
CC(C)(C)C(=O)O[C@H]1CC[C@@]2(C)C(=CC(=O)C3C2CC[C@]2(C)C(=O)[C@H](O)CC32)C1 (stereo partly drawn)
  N370S GC = ·; TDP1 block = 0.3%
CC(C)OC1CCCC(O)C1CC(=O)O (stereo not drawn)
  N370S GC = -5.5%; TDP1 block = 5.5%
O=c1[nH]c(=S)n(Cc2ccc(F)cc2)c(O)c1C=NCc1ccc2c(c1)OCO2
  N370S GC = 0.7%; TDP1 block = 1.3%

Rewritten with two lines to a compound: 3 of the compounds above.
Every second line gives: N370S GC	TDP1 block
> Cc1cc(OCc2nn[nH]n2)c2c3c(c(=O)oc2c1)CCC3
  6.7%	6.2%
> O=C(c1cccs1)N1C2CCC1CC(O)(c1cccnc1)C2 (stereo not drawn)
  2.2%	1.0%
> COc1ccccc1-n1c(/C=C/c2ccc(O)cc2)nc2ccccc2c1=O
  -6.8%	·

Additional records follow:
Cc1cccc(OC(=O)N2CCOCC2)c1
  N370S GC = -2.6%; TDP1 block = 9.6%
O=C(Cc1c(Cl)cccc1Cl)N1CCN(Cc2ccccc2)CC1
  N370S GC = -1.4%; TDP1 block = ·
O=C(COc1ccc(Br)cc1)N1CCN(Cc2ccncc2)CC1
  N370S GC = 8.5%; TDP1 block = -3.1%
Cc1ccc(CNC2=NCCS2)cc1
  N370S GC = -7.8%; TDP1 block = 5.1%
Nc1ccc(-c2ccc(N)cc2)cc1
  N370S GC = -5.2%; TDP1 block = 17.2%
CNC(=O)CSP(=S)(OC)OC
  N370S GC = 8.8%; TDP1 block = -4.2%[56.1 µM]
O=c1[nH]c(=O)n(Cc2ccco2)c(O)c1/C=N/N1CCCCC1
  N370S GC = 2.6%; TDP1 block = -5.3%
COc1cccc(-n2c(-c3ccoc3)nc3ccccc3c2=O)c1
  N370S GC = 4.1%; TDP1 block = 7.0%
S=C1NCCN1
  N370S GC = 0.4%&2.0%; TDP1 block = -2.7%&12.1%
CCCN(CC#CCOc1ccc(OC)cc1)CCC
  N370S GC = 4.5%; TDP1 block = 0.0%

O=C(C[N+]12CCC(CC1)C(C(O)(c1ccccc1)c1ccccc1)C2)c1ccc(Br)cc1 (stereo not drawn)
  N370S GC = -11.7%; TDP1 block = 4.8%
Nc1nnc(P(c2ccccc2)c2ccccc2)s1
  N370S GC = 10.5%; TDP1 block = ·
Cc1cc(=O)oc2cc(OCC(=O)N3CCN(Cc4ccccc4)CC3)ccc12
  N370S GC = ·; TDP1 block = 2.7%
CCOC(=O)c1nsnc1NCCCl
  N370S GC = -15.3%; TDP1 block = 0.0%
O=C(Nc1ccc(F)cc1)OC1CN2CCC1CC2 (stereo not drawn)
  N370S GC = -8.1%; TDP1 block = -2.5%
COc1ccc(OC)c(-n2c(O)c(C=Nc3c(C)n(C)n(-c4ccccc4)c3=O)c(=O)[nH]c2=O)c1
  N370S GC = -2.7%; TDP1 block = 3.8%
CN(C)C1=NP(N(C)C)(N(C)C)=NC(c2ccccc2)=N1
  N370S GC = -4.5%; TDP1 block = 2.0%
N#Cc1ccccc1OCC(=O)N1CCN(CC(=O)Nc2ccc(F)cc2)CC1
  N370S GC = -0.1%; TDP1 block = 4.4%
CCCCCn1c(=O)c(C(=O)NCc2ccncc2)c(O)c2ccccc21
  N370S GC = 11.0%; TDP1 block = -5.3%
CCN1C[C@@]2(COC)CC[C@H](OC)[C@]34[C@@H]1[C@]1(OCO[C@@]15C[C@@H](OC)C1C[C@H]3[C@H]5[C@@H]1OC)[C@H](O)[C@@H]24
  N370S GC = 8.1%[21.6 µM]; TDP1 block = 15.4%[21 µM]

CN1[C@@H]2CC(OC(=O)[C@H](CO)c3ccccc3)C[C@H]1[C@@H]1O[C@@H]12 (stereo partly drawn)
  N370S GC = 6.0%&-9.4%&7.8%; TDP1 block = 2.7%&0.0%
COC(=O)C(O)(c1ccc(N(C)C(=O)c2ccc(Cl)c(Cl)c2)cc1)C(F)(F)F (stereo not drawn)
  N370S GC = -2.5%; TDP1 block = 0.0%
Clc1cccc(Cl)c1C1N2CCCN12 (stereo not drawn)
  N370S GC = 5.7%; TDP1 block = -4.7%
OC1/C(=C/c2ccc(C(F)(F)F)cc2)N2CCC1CC2 (stereo not drawn)
  N370S GC = -6.1%; TDP1 block = 0.0%
O=c1[nH]c(=S)n(C2CC2)c(O)c1C=NCc1cccnc1
  N370S GC = -0.9%; TDP1 block = ·
Cc1c(C(c2ccc(O)cc2)c2c(O)c3ccccc3oc2=O)c(=O)n(-c2ccccc2)n1C (stereo not drawn)
  N370S GC = -3.7%; TDP1 block = -2.9%&-1.9%
CCNCC(O)c1cccc(O)c1 (stereo not drawn)
  N370S GC = -2.4%; TDP1 block = ·
CNC(C)C(O)c1ccccc1 (stereo not drawn)
  N370S GC = -3.5%; TDP1 block = -7.3%[56.1 µM]
COP(=O)(OC)C(NC(=O)c1ccc(C)cc1)C(Cl)(Cl)Cl (stereo not drawn)
  N370S GC = 1.2%; TDP1 block = 2.4%
C[N+](C)(C)CCOC(=O)CBr
  N370S GC = 1.3%&0.8%&-18.7%; TDP1 block = -7.6%[56.1 µM]

CCNC[C@H](O)c1cccc(O)c1
  N370S GC = -1.5%[21.6 µM]; TDP1 block = -2.1%[56.1 µM]
CN(C)C(=O)Oc1cccc(NC(=O)N2CCOCC2)c1
  N370S GC = -1.2%; TDP1 block = -1.2%
C[C@@H](Cc1ccc(O)cc1)NC[C@@H](O)c1cc(O)cc(O)c1
  N370S GC = 10.0%[21.6 µM]; TDP1 block = 10.8%[21 µM]
CC(C)C1(C)N=C(c2nc3ccccc3cc2C(=O)O)NC1=O (stereo not drawn)
  N370S GC = 15.7%; TDP1 block = -4.7%
CC1CN(C)C(C)(C)CC1(O)c1ccccc1 (stereo not drawn)
  N370S GC = 2.0%; TDP1 block = 3.9%
CN(C)C1(CNC(=O)Cc2ccccc2F)CCCCC1
  N370S GC = -1.0%; TDP1 block = ·
Cc1cc2c(C(F)(F)F)cc(=O)oc2c2c1NCCC2
  N370S GC = 7.4%; TDP1 block = 2.1%
COc1ccc(-n2c(-c3ccccc3)nc3ccccc3c2=O)cc1
  N370S GC = 3.6%; TDP1 block = 5.6%
O=[N+]([O-])c1c(Cl)c(Cl)c(Cl)c(Cl)c1Cl
  N370S GC = 10.9%; TDP1 block = 11.6%
NC(=O)CN1C2CCC1CC(NC(=O)C1CC1)C2 (stereo not drawn)
  N370S GC = 1.1%; TDP1 block = 3.8%

COC1=CC(=O)O[C@H](/C=C/c2ccc3c(c2)OCO3)C1
  N370S GC = -4.0%; TDP1 block = 10.8%
CSc1ccc(CN2CCN(C(=O)COc3ccc(C)cc3)CC2)cc1
  N370S GC = -15.3%; TDP1 block = -0.5%
CN(C)c1ccc(/C=C/[N+](=O)[O-])cc1
  N370S GC = 1.5%; TDP1 block = 1.9%
O=c1c2ccccc2nc(/C=C/c2ccc(F)cc2)n1-c1ccccc1O
  N370S GC = -12.5%; TDP1 block = ·
C[C@]12CCC3C(CC[C@@H]4C[C@H](O)CC[C@]34C)C1CCC2=O (stereo partly drawn)
  N370S GC = ·; TDP1 block = 0.8%
O=S(=O)(NC1CCCC1)OCC(Cl)(Cl)Cl
  N370S GC = -5.7%; TDP1 block = ·
NP(=O)(OCCCc1ccccc1)Oc1ccccc1 (stereo not drawn)
  N370S GC = -8.5%; TDP1 block = ·
C=CCn1c(O)c(C(C)=NCCCN(C)C)c(=O)[nH]c1=O
  N370S GC = -3.9%; TDP1 block = -2.6%
CC12CN3CCN(C1)CC(C)(C3)C2=NN
  N370S GC = 0.5%; TDP1 block = 3.6%
Cc1nc2c(C(=O)N3CCC4(CC3)OCCO4)cnn2c(C)c1Cc1cccc(Cl)c1
  N370S GC = -3.4%; TDP1 block = -2.3%

Profiles, quoted from the list. Values in the order: N370S GC | TDP1 block
`O=[N+]([O-])c1c(Cl)c(Cl)c(Cl)c(Cl)c1Cl` is listed as 10.9% | 11.6%
`CC12CN3CCN(C1)CC(C)(C3)C2=NN` is listed as 0.5% | 3.6%

Other results
C/C(=N\N=C(N)N)c1ccccc1
  N370S GC = -8.2%; TDP1 block = 7.0%
COc1ccc(N=Cc2c(O)n(C)c(=O)n(C)c2=O)cc1
  N370S GC = -2.0%; TDP1 block = ·
CCOC(=O)C1C(=O)NC23CCCC2C1c1ccccc1O3 (stereo not drawn)
  N370S GC = -6.6%; TDP1 block = 2.0%
Cc1nn(CC(=O)N2CCC3(CC2)OCCO3)c(=O)c2cc3ccccc3n12
  N370S GC = -6.4%; TDP1 block = 1.5%
COc1cccc(N(C(C)=O)C2=NCCCS2)c1
  N370S GC = 0.2%; TDP1 block = ·
Cc1cc(S(N)(=O)=O)ccc1N=Cc1c(O)n(-c2ccccc2)c(=O)[nH]c1=O
  N370S GC = -5.8%; TDP1 block = 2.7%
COC(=O)c1c(C)n(Cc2ccc3c(c2)OCO3)c2ccc(O)cc12
  N370S GC = 14.2%; TDP1 block = 8.2%
CCCCn1c(O)c(C(C)=Nc2c(C)n(C)n(-c3ccccc3)c2=O)c(=O)[nH]c1=O
  N370S GC = -5.4%; TDP1 block = -4.9%
C[C@H]1[C@@H](c2ccccc2)O[C@@H](c2ccccc2Br)N1C
  N370S GC = -1.3%; TDP1 block = -15.9%
O=C(Cc1ccccc1)N1CCN(Cc2cccc(Cl)c2)CC1
  N370S GC = -23.3%; TDP1 block = ·

O=c1[nH]c(=S)n(-c2ccc(Cl)cc2)c(O)c1/C=N/N1CCOCC1
  N370S GC = -8.6%; TDP1 block = -2.6%
Cc1c(C=O)c2ccccc2n1Cc1ccccc1F
  N370S GC = -5.4%; TDP1 block = -3.6%
CC(C)(C)c1o[nH]c(=O)c1C[C@H](N)C(=O)O
  N370S GC = -1.5%; TDP1 block = 4.8%
COc1ccc(NC(=O)c2cn(CCC#N)nc2-c2ccc(OC)c(OC)c2)cc1
  N370S GC = 2.3%; TDP1 block = 3.3%
CCC1(C)CN(S(=O)(=O)OCC(Cl)(Cl)Cl)C(=O)N1 (stereo not drawn)
  N370S GC = 2.5%; TDP1 block = ·
CC(=O)NC(Cc1ccc(N(CCCl)CCCl)cc1)C(=O)NC(C(=O)O)C(C)C (stereo not drawn)
  N370S GC = -4.1%; TDP1 block = 5.1%
O=C(CCC(=O)N1CC2C[C@@H](C1)Cn1c2cccc1=O)NCCc1ccccc1F
  N370S GC = -0.7%; TDP1 block = ·
Cc1c(N)c(C)c([N+](=O)[O-])c(C)c1[N+](=O)[O-]
  N370S GC = 19.3%; TDP1 block = 3.7%
C[C@]12CCC3[C@@H](CC[C@@H]4C[C@H](O)CC[C@]34C)[C@@H]1CCC2=O (stereo partly drawn)
  N370S GC = -8.0%; TDP1 block = ·
Clc1ccccc1Nc1ncnc(-n2cccc2)n1
  N370S GC = 10.5%; TDP1 block = 10.5%
CCC1(c2ccccc2)C(=O)N(COC)C(=O)N(COC)C1=O
  N370S GC = 12.6%; TDP1 block = 2.9%
COc1ccc(N2CCN(C(CNC(=O)Oc3ccccc3)c3cccnc3)CC2)cc1 (stereo not drawn)
  N370S GC = -2.4%; TDP1 block = 5.3%
CC(=O)O[C@H]1CC[C@@]2(C)[C@H](C1)C(=O)C[C@H]1[C@@H]3CC[C@@H]4[C@@H](CN5C[C@@H](C)CC[C@H]5[C@@]4(C)O)[C@@H]3C[C@@H]12
  N370S GC = -1.1%; TDP1 block = ·

Seven entries picked at random from those above, as already listed:
CCC1(C)CN(S(=O)(=O)OCC(Cl)(Cl)Cl)C(=O)N1 (stereo not drawn)
  N370S GC = 2.5%; TDP1 block = ·
Cc1c(N)c(C)c([N+](=O)[O-])c(C)c1[N+](=O)[O-]
  N370S GC = 19.3%; TDP1 block = 3.7%
Cc1c(C=O)c2ccccc2n1Cc1ccccc1F
  N370S GC = -5.4%; TDP1 block = -3.6%
CC(C)(C)c1o[nH]c(=O)c1C[C@H](N)C(=O)O
  N370S GC = -1.5%; TDP1 block = 4.8%
O=C(CCC(=O)N1CC2C[C@@H](C1)Cn1c2cccc1=O)NCCc1ccccc1F
  N370S GC = -0.7%; TDP1 block = ·
Clc1ccccc1Nc1ncnc(-n2cccc2)n1
  N370S GC = 10.5%; TDP1 block = 10.5%
COc1ccc(N2CCN(C(CNC(=O)Oc3ccccc3)c3cccnc3)CC2)cc1 (stereo not drawn)
  N370S GC = -2.4%; TDP1 block = 5.3%

Screening results: PubChem BioAssay, National Center for Advancing Translational Sciences (NCATS)
